Source: PubChem BioAssay (National Center for Advancing Translational Sciences (NCATS))
Rango-impB inh: inhibitors of Rango-importin beta complex formation; Rango CFP/YFP FRET sensor + importin beta, 45 min; Q14974; hit rate 0.031% among 340,000; Potency, µM (top dose mostly 92.2 µM), inactives show at the highest dose inhibition of complex formation; active = rising FRET ratio curve, often small or poorly fitted; inconclusive = mostly compound fluorescence or quenching in the first reads; inactive = flat curves in all reads;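 note: potency is the fitted concentration of half-maximal effect; 0% = DMSO wells and 100% = buffer wells lacking importin beta; nearly all actives have a fitted effect of over 15% in size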
Target sequence (Q14974 whole entry, looked up): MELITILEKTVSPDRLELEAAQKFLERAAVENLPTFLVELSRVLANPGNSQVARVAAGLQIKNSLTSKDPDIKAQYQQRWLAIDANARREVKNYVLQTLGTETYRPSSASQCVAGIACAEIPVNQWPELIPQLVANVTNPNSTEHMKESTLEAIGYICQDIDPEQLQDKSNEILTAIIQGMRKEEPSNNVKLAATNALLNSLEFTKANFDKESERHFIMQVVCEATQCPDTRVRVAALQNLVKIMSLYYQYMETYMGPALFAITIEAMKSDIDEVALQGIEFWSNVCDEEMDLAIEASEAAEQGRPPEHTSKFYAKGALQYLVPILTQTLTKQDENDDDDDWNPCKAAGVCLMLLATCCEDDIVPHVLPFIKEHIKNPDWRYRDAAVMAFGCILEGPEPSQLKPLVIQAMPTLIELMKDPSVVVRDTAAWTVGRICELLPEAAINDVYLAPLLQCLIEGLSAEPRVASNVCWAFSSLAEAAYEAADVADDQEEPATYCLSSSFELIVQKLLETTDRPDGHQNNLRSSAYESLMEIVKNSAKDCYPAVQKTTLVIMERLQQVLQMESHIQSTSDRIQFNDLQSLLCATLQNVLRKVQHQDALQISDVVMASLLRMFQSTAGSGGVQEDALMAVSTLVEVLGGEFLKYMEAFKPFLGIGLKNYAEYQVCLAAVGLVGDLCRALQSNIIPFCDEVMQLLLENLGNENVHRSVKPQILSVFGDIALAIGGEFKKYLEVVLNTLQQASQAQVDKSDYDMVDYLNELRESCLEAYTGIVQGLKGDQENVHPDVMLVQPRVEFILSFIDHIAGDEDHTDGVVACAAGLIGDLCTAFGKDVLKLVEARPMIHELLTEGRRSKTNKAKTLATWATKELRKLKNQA
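FRET biosensor Rango (snurportin 1 IBB between N-terminal EYFP and C-terminal Cerulean), 50 nM in PBS/1 mM DTT/0.02% Tween-20/0.1% BSA, preincubated 5 min RT with compound; 0.125 microM importin beta added, 45 min RT, CFP/YFP FRET ratio read.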
Rango dissoc inh: inhibition of RanGTP-driven Rango-importin beta dissociation. O95149+P62826. Biochemical FRET Rango-importin beta, RanGTP-induced dissociation. Potency, µM (highest dose often 46.1 µM), for inactives: at the top dose activity change, negative = inhibition. hit rate 0.071% among 340,000; active means falling FRET ratio curve, often poorly fitted, with flat reads before Ran was added; inconclusive means other falling curves, or compound fluorescence or quenching; inactive means flat or rising ratio curve;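 note: potency is the fitted concentration of half-maximal effect; % of control where 0% means no effect; nearly all actives have a fitted effect of over 45% in size; -100% = wells without RanGTP and RCC1; the record marks most hits as doubtful in a second field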
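FRET read at 45 min, room temperature: inhibitors block the CFP/YFP signal rise when RanGTP (0.6 uM Ran, 2 mM GTP, 0.2 uM RCC1) frees Rango (0.1 uM) from importin beta (0.25 uM). Pre-read after 5 min compound exposure flags interference.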
miR-21 reporter: miR-21 reporter, rising signal; Potency, µM (highest dose often 38.3 µM), inactives show at the top dose reporter change, positive = more light; HeLa miR-21 FLuc reporter, luciferase, 48 h; 340,000 tested, under 10 active; active = well fitted rising curve with a large enough effect; inconclusive = small, poorly fitted or top-dose-only effect; inactive = no such curve, though single readings can be large or run the other way;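 note: % of control where 0% means no effect; miR-21 action dims this reporter so a rising signal means less miR-21 action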
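HeLa cells stably expressing CMV-driven firefly luciferase with a downstream miR-21 binding sequence, endogenously expressing miR-21, were treated with titrations (up to about 40uM final) for 48 hours at 37 degree Celsius. Luciferase luminescence was read after lysis.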
GLA inh pH 4.5: alpha-galactosidase A (human) inhibition, pH 4.5; P06280; purified enzyme, 4-MU-alpha-Gal fluorescence, pH 4.5; activity change, negative = inhibition, % at 105 µM; 230,000 tested, under 10 active; AID 1467; inconclusive = small, poorly fitted or top-dose-only inhibition, or a rising curve; inactive = flat fitted curve, though single readings scatter; no compound was filed as active;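 note: 0% = full activity with enzyme and -100% = basal without enzyme; dose as in the result columns while the protocol names 77 µM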
* hit, by the source's call; ? = inconclusive; · = not tested or not shown; & = joins results of further samples. Only part of the results is shown (hit frequency here may not be typical).

Each structure is followed by: Rango-impB inh	Rango dissoc inh	miR-21 reporter	GLA inh pH 4.5
COC(=O)c1cn(NC(=O)Cn2nc([N+](=O)[O-])c(Cl)c2C)c(=O)c2ccccc12
    ?	-21%	0%	-9
C=CCN1C(=O)C(Cc2ccc(F)cc2)S/C1=N/N=C/c1cccs1 (configuration not stated)
    -0.2%	12%	-4%	4
COc1ccc2cc(C(=O)N3CCN(c4cccc(C)c4C)CC3)[nH]c2c1
    1.0%	0%	-3%	·
COc1ccnc(Oc2ccccc2)c1C(=O)N/C=N/OCc1ccccc1F
    -1.7%	6%	9%	0
CCNC(=O)OCCC12CC3CC(CC(C3)C1)C2
    6.0%	-7%	-32%	-4
CN(Cc1ccccc1)Cc1nc2c(c(=O)n(C)c(=O)n2C)n1CCCc1ccccc1
    2.2%	7%	0%	0
Cn1c(SCc2nc3ccccc3[nH]2)nnc1-c1ccccn1
    5.8%	-5%	-15%	5
CC(O)CSc1nc2c(c(=O)[nH]c(=O)n2C)n1Cc1ccccc1 (configuration not stated)
    9.1%	-2%	-25%	·
COC(=O)c1cccc(C23CC4(C2)[C@H](CN(Cc2ccc(C(F)(F)F)cc2)[C@@H]4c2ccccc2)C3c2ccccc2)c1 (some centres not stated)
    -0.1%	7%	2%	-1&2
CCOc1ccccc1NC(=O)c1ccc(S(=O)(=O)N(C)c2ccccc2)cc1
    -2.9%	-11%	·	·
CCCCN1C(=O)/C(=c2\sc3nc(=O)c(-c4ccccc4)nn3c2=O)c2ccccc21
    -1.4%	1%	-2%	8
O=C1C2(c3ccccc3)CN(CCCO)CC1(c1ccccc1)CN(CCCO)C2
    -0.5%	15%	-5%	-5
CCN(CC)C(=O)CSc1nc2cc(OC)c(OC)cc2c(=O)n1Cc1ccc(Cl)cc1
    -1.3%	-2%	-5%	-8
COc1ccc(-c2c(S(=O)(=O)c3ccccc3)cnn2-c2ccccc2)cc1
    0.2%	21%	0%	-5
CCN(CCn1cccn1)C(=O)c1cc(COc2ccc(F)c(F)c2)on1
    -1.0%	2%	-34%	·
CCN(CC(=O)NCc1cccs1)S(=O)(=O)c1cccc(C(C)=O)c1
    0.0%	-2%	-2%	-2
Cc1ccccc1C(=O)Nc1ccnn1C1CCN(C(=O)C2CCOC2)CC1 (configuration not stated)
    8.6%	-2%	-1%	·
Cc1ccc(SCC2CNc3nc4ccccc4c(=O)n32)c(C)c1 (configuration not stated)
    0.4%	11%	-16%	-6
COc1cc(C2C(C(C)=O)=C(O)C(=O)N2CCN(C)C)ccc1O (configuration not stated)
    -1.4%	0%	0%	-2
O=C(NNC(=O)c1ccc([N+](=O)[O-])cc1)c1ccc(NS(=O)(=O)c2cccs2)cc1
    -3.6%	12%	·	·
Cc1cccc(OCC(=O)Nc2ccc(S(=O)(=O)Nc3ccccn3)cc2)c1
    -0.5%	-9%	-1%	11
CC(C)(C)c1ccc(OC(=O)c2ccc3nsnc3c2)cc1
    2.3%	-10%	-1%	12
O=C1N=c2ccccc2=C1c1sc(Nc2cccc(O)c2)nc1O
    -1.6%	11%	-16%	·
CCOC(=O)CSc1cc(CS(=O)c2ccc(Cl)cc2)nc(-c2ccccc2)n1 (configuration not stated)
    0.3%	1%	-3%	-11
CCN(CC)CCNC(=O)c1ccc(NC(=O)c2ccc(F)cc2)cc1
    -4.9%	18%	1%	-4
Cn1c(SCC(=O)O)nc2sc3c(c2c1=O)CCC3
    0.4%	-6%	2%	·
Cc1ccc(/C=N/Nc2ccc(C(=O)O)cc2)s1
    ?	?	16%	-7
CCn1c(SCc2c(F)cccc2Cl)nnc1-c1ccco1
    -0.4%	1%	-24%	-9
O=S(=O)(c1ccccc1F)N(Cc1ccco1)Cc1nnc(-c2ccccc2Br)o1
    0.2%	-3%	-9%	1
CC(=O)NNc1nc(-c2ccc(NC(C)=O)cc2)cs1
    0.1%	-3%	-9%	-1
COc1ccc(CNC(=O)Oc2ccccc2)cc1Cl
    -0.5%	-2%	-5%	4
NCCc1nnc(SCC(=O)c2ccc(Cl)cc2)o1
    -0.2%	13%	-1%	-2
O=C(c1cccc(S(=O)(=O)N2CCOCC2)c1)N1CCN(C/C=C/c2ccccc2)CC1
    ?	-6%	·	·
O=C(Nc1nc(-c2ccccc2)c(-c2ccccc2)s1)c1ccc(S(=O)(=O)N2CCCC2)cc1
    -2.4%	7%	-4%	-8
CC(C)NS(=O)(=O)c1ccc(OCC(=O)Nc2cccc(F)c2)cc1
    -2.3%	15%	4%	2
O=C(N1CCOCC1)C1(c2ccc(Cl)cc2)CCCC1
    -0.2%	-8%	-12%	-12
O=C1C2ON(c3ccccc3)C(c3cccnc3)C2C(=O)N1Cc1ccccc1 (configuration not stated)
    -4.0%	-13%	0%	-9
CC(C)CCN(C(=O)CNC(=O)c1ccco1)C(C(=O)NC1CCCCC1)c1ccco1 (configuration not stated)
    2.5%	7%	-1%	9
COc1ccccc1-c1nnc(SCC(=O)N2CCC(C)CC2)o1
    0.0%	0%	-13%	1
CCOC(=O)c1cnc2c(C#N)c(C)nn2c1-c1ccccc1
    0.0%	14%	3%	-5
Cc1[nH]c2ccccc2c1CN1CCC(Cc2ccccc2)CC1
    -0.1%	?	2%	-17
CCOc1cc(/C=N/Nc2cc(C)nc(-n3nc(C)cc3C)n2)ccc1O
    ?	16%	?	0
COc1cccc(NC(=O)NCc2ccccc2F)c1
    -2.7%	-15%	-45%	-2
Cn1c(N)c(C(=O)COC(=O)c2ncc(Cl)c(Cl)c2Cl)c(=O)n(C)c1=O
    -0.4%	7%	2%	4
O=C(Cn1ncc2c(=O)oc3ccccc3c21)NCCCN1CCCC1=O
    -7.6%	11%	-3%	1
O=C(CSCc1ccc(Br)cc1)NC1CC1
    0.4%	7%	-12%	1
O=C(c1ccco1)N1CCN(S(=O)(=O)c2cccc(Cl)c2)CC1
    ?	-6%	-3%	·
O=c1c2ccccc2nc(-c2ccccc2)n1Cc1ccco1
    -2.1%	9%	-26%	4
CCC(C)[C@H]1COCCS(=O)(=O)N1Cc1ccc(Br)cc1 (some centres not stated)
    0.1%	-5%	3%	·
Cc1ccc2c(c1)[nH]c1c(N3CCN(Cc4ccccc4)CC3)ncnc12
    -2.0%	3%	30%	-19
COc1cccc(CN2CCNC(=O)C2CC(=O)NCCc2cccc(C)n2)c1OC (configuration not stated)
    -0.9%	-2%	1%	-2
CN(C)S(=O)(=O)c1ccc(Cl)c(NC(=O)CN2C(=O)NC(C)(C3CC3)C2=O)c1 (configuration not stated)
    -2.4%	-2%	-1%	4
C[N+](C)(CCOc1ccccc1)Cc1ccccc1 (tested in a mixture with another compound)
    -0.8%	-11%	0%	·
CC(C)N(CCCNC(=O)c1nn(C)c2c1CS(=O)(=O)c1ccccc1-2)Cc1ccccc1
    0.0%	-3%	0%	·
NC(=O)C1=C(N)c2ccccc2C1c1ccccc1 (configuration not stated)
    -1.2%	2%	·	·
C/C(=N\NC(=S)NC(C)C)c1ccc(C(C)(C)C)cc1
    -6.2%	29%	5%	-18
CC(c1ccccc1)N(C)CC(=O)NC(=O)NCCC1=CCCCC1 (configuration not stated)
    2.2%	9%	·	·
C/C(=N/NC(=O)C1COc2ccccc2O1)c1ccc(Br)s1 (configuration not stated)
    4.1%	0%	-5%	4
O=C(CCn1nc(-c2ccc(Cl)cc2)ccc1=O)NCCCN1CCCCCC1
    1.1%	-14%	-2%	-1
Cc1cc(NC(=O)c2ccco2)sc1C
    0.0%	4%	·	·

Three compounds from above, sorted by heavy-atom count, falling:
Each structure is followed by: Rango-impB inh	Rango dissoc inh	miR-21 reporter	GLA inh pH 4.5
O=C(Nc1nc(-c2ccccc2)c(-c2ccccc2)s1)c1ccc(S(=O)(=O)N2CCCC2)cc1
    -2.4%	7%	-4%	-8
Cc1ccc2c(c1)[nH]c1c(N3CCN(Cc4ccccc4)CC3)ncnc12
    -2.0%	3%	30%	-19
O=C(CSCc1ccc(Br)cc1)NC1CC1
    0.4%	7%	-12%	1

Remaining list, next part.
Each structure is followed by: Rango-impB inh	Rango dissoc inh	miR-21 reporter	GLA inh pH 4.5
CN(C)C(=O)CSc1nc(SCC(=O)N(C)C)n(-c2ccccc2)n1
    3.5%	22%	1%	-5
COc1ccc(Cn2nnnc2C(c2ccc3ncccc3c2)N2CCN(C3CCCCC3)CC2)cc1 (configuration not stated)
    1.0%	0%	2%	-4
COc1ccc(CCNS(=O)(=O)c2ccc(-n3cnnn3)cc2)cc1OC
    -2.8%	1%	-8%	·
CC1=C(C(=O)Nc2ccccc2)C(c2ccncc2)C(C#N)=C(SCC(=O)NC2CC2)N1 (configuration not stated)
    0.9%	-2%	-10%	-3
Cc1ccc(C(=O)c2ccc(N3CCN(C)CC3)c([N+](=O)[O-])c2)cc1
    -0.6%	12%	-9%	-13
CCOC(=O)c1cnc(Cc2ccccc2)[nH]c1=O
    2.8%	-2%	-2%	·
COc1cc(CCC(=O)OCC(=O)Nc2nc(C)c(Cl)cc2Cl)cc(OC)c1OC
    0.4%	8%	-1%	-3
CCOc1ccc(CN(C)C(=O)CCN2C(=O)c3ccccc3C2=O)cc1OC
    5.8%	24%	-2%	·
COc1ccc(N(CC(O)Cn2c(C)nc3ccccc32)S(=O)(=O)c2ccc(C)cc2)cc1 (configuration not stated)
    0.2%	-4%	-4%	-10
O=C(NCCC1=CCCCC1)C(=O)NCC(c1ccco1)N1CCN(c2ccc(F)cc2)CC1 (configuration not stated)
    2.6%	-1%	-8%	0
Cc1ccc(C)n1CCN1CCN(C(=O)CSc2nc3ccccc3nc2N2CCOCC2)CC1
    2.4%	-8%	-4%	0
O=C1CCC(=O)c2oc3ccccc3c2N1
    -0.1%	12%	-7%	7
CCNc1nc(NCC)n2c(SCC(=O)Nc3ccc(CC)cc3)nnc2n1
    -2.0%	16%	·	·
CCCCC(=O)Nc1ccc(NC(=O)c2ccc([N+](=O)[O-])cc2Cl)cc1OC
    -1.0%	22%	-17%	0
c1ccc2[nH]c(-c3cnco3)cc2c1
    0.1%	-10%	-15%	·
O=C(CC1NCCNC1=O)OCCCc1ccccc1 (configuration not stated)
    -3.5%	2%	-8%	5
C=CCNC(=O)c1onc(CSc2ccc(F)cc2)c1C(=O)NCCOC
    6.1%	6%	-7%	0
CN(C)S(=O)(=O)c1ccc(C(=O)OCC(=O)NCc2ccccc2)cc1
    -2.2%	25%	-1%	-4
Cc1cccc(NC(=O)CNC(=O)CCc2nc3sc4c(c3c(=O)[nH]2)CCCC4)c1C
    ?	?	·	·
CCc1ccc(/C=C2/SC(=S)N(CCC(=O)Nc3cccnc3)C2=O)cc1
    0.3%	-11%	0%	·
COc1ccc([C@@H]2CC=C(C(=O)O)[C@H](c3ccc(C(C)(C)C)cc3)N2S(=O)(=O)c2ccc(C)cc2)cc1OC
    1.8%	9%	·	·
CCN(CC(=O)Nc1c(F)cccc1F)C(=O)c1ccc(S(=O)(=O)N2CCC(C)CC2)cc1
    1.6%	0%	·	·
CCN(CC)c1ccc(NC(=O)C2CCC(CNc3c(N4CCCC4)c(=O)c3=O)CC2)c(C)c1 (configuration not stated)
    3.8%	15%	-1%	1
